HPGD block – qHTS Assay for Inhibitors of HPGD (15-Hydroxyprostaglandin Dehydrogenase) | purified HPGD, NADH fluorescence kinetic, PGE2 substrate | Potency, µM, for the others: at the highest dose activity change, negative = inhibition, hits mostly inhibitors | 4.3% of 150,000 active; active = well fitted inhibition curve with a large enough effect (not every such curve was filed as active); inconclusive = small, poorly fitted or top-dose-only effect, or another doubt; inactive = no such curve, though single readings can be large or run the other way;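 also: top concentration of the series not given in the record; plate controls included wells without enzyme; inactives centre near -10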
Target sequence (P15428 whole entry, looked up): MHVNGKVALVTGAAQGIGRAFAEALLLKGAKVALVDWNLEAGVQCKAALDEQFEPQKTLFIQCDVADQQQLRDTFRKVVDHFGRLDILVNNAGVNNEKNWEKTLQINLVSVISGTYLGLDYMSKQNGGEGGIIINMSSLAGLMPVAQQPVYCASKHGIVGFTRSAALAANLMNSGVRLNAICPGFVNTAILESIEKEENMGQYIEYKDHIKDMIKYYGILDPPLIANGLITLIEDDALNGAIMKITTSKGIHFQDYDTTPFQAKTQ
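NADH formation kinetics: reaction with 30 uM PGE2 and 1 mM NAD+ (final), 20 nM enzyme, Tris-HCl pH 8 with Tween 20, after 15 min compound preincubation at room temperature. Fluorescence change, last versus first of five reads.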
An asterisk follows results filed as active; ? = inconclusive; & = joins results of further samples. % is scaled to controls: 0 for no effect and ±100 for the full control effect; potency is read from the fitted curve at half-maximal effect.

HPGD block	Molecule
-16%	CC(C)C(NC(=O)C12CC3CC(CC(C3)C1)C2)C(=O)NC1=NCCS1 (configuration not stated)
-4%	N=c1c2c(-c3ccccc3)c(-c3ccccc3)n(Cc3ccco3)c2ncn1CCO
-10%	COc1ccc(NCc2nnc(SCC(=O)c3ccc(OC)cc3)o2)cc1
-17%	CCC(CC)c1nnc(NC(=O)c2nc3nc(C)cc(C)n3n2)s1
-7%	Cc1ccc(-c2csc(-c3c[nH]c4ccccc34)n2)cc1
-9%	COc1ccc(CN2c3cc(S(=O)(=O)N4CCOCC4)ccc3N3CCCC32)cc1 (configuration not stated)
?	COc1ccc2[nH]c(=O)c(CNC3CCCCC3)cc2c1
?	CCOC(=O)c1sc(Nc2nc3ccc(OC)cc3s2)cc1C
-26%	Cc1ccc(CSCC(=O)Nc2ccc3c(c2)OCO3)cc1
-4%	Clc1ccc(C(c2nnnn2C2CCCC2)N2CCN(Cc3ccncc3)CC2)cc1 (configuration not stated)
-15%	COc1cccc(/C=N/N2C(=O)NC3(CCCCC3)C2=O)c1O
-10%	CCOc1ccc(-n2c(SCC(=O)Nc3cc(OC)c([N+](=O)[O-])cc3C)nc3ccccc32)cc1
-26%	NC(=O)c1cc(Br)cc2c3c([nH]c12)CCCC3
-25%	O=C(Cc1ncn[nH]1)NCCc1ccccc1
-28%	COc1cccc(-n2c(C)nc3cc(C(=O)O)ccc32)c1
-29%	COCCCNC(=O)Cn1nnc(-c2ccccc2NC(=O)c2ccc(F)cc2)n1
?	Cc1cccc(-n2ncc3c(NCc4ccco4)ncnc32)c1
-15%	O=C(N/N=C/c1ccccc1OCC(=O)N1CCCC1)C(=O)Nc1ccccc1F
-15%	COc1ccc(OC)c(/C=N/N=C2\SCC(=O)N2Cc2ccco2)c1
-7%	COc1cc(O)c(C(=O)/C=C/c2ccccc2)c(OC)c1
-8%&1%&-5%&-9%	CC[N+](CC)(CC)CC(=O)Nc1c(C)cccc1C
-10%	CCn1c(COc2cccc(C)c2)nc2ccccc21
-5%	O=C(Cc1ccccc1)NCCn1ccc2ccccc21
?	O=C(Nc1cc2c(cc1Br)OCCO2)c1ccco1
-12%	COc1ccccc1N(Cc1cc2cccc(C)c2[nH]c1=O)C(=O)C(C)C
?	CCOC(=O)N1CCN(C2CC(=O)N(c3ccc(Cl)c(Cl)c3)C2=O)CC1 (configuration not stated)
-4%	COC(=O)c1ccc(NC(=O)C(=O)N2CCN(C(=S)Nc3ccc(OC)cc3)CC2)cc1
-14%	CCCNC(=O)N1CCN(c2nc(C(C)C)c3c(c2C#N)CC(C)(C)OC3)CC1
-19%	CC(C)c1ccc(N(CC(=O)NCCSC(C)(C)C)S(C)(=O)=O)cc1
-14%	CCOC(=O)COc1c(Cl)cc(C2NC(=S)NC(c3ccccc3)=C2C(C)=O)cc1OCC (configuration not stated)

A draw from above in order of length of the SMILES, descending:
HPGD block	Molecule
-14%	CCCNC(=O)N1CCN(c2nc(C(C)C)c3c(c2C#N)CC(C)(C)OC3)CC1
-4%	N=c1c2c(-c3ccccc3)c(-c3ccccc3)n(Cc3ccco3)c2ncn1CCO
-15%	O=C(N/N=C/c1ccccc1OCC(=O)N1CCCC1)C(=O)Nc1ccccc1F
-15%	COc1ccc(OC)c(/C=N/N=C2\SCC(=O)N2Cc2ccco2)c1
-7%	Cc1ccc(-c2csc(-c3c[nH]c4ccccc34)n2)cc1
?	Cc1cccc(-n2ncc3c(NCc4ccco4)ncnc32)c1
-10%	CCn1c(COc2cccc(C)c2)nc2ccccc21

(more compounds)
HPGD block	Molecule
-24%	COc1cccc(-c2nc(CS(=O)CC(=O)O)c(C)o2)c1 (configuration not stated)
-5%	CCOC(=O)c1nnc2ccnn2c1N
-14%	CCCCC(CC)C(=O)O (configuration not stated)
-29%	O=C(O)C1CC=CCC1C(=O)Nc1cccc(Cl)c1 (configuration not stated)
-7%	N#Cc1c(NC(=O)CSc2ncn[nH]2)sc2c1CCCCC2
-2%	COc1cc(CC(=O)OCC(=O)Nc2cc(S(=O)(=O)N3CCCC3)ccc2Cl)cc(OC)c1OC
-20%	C/C(=N\NC(=O)c1ccc(C)cc1)C1C(=O)c2ccccc2C1=O
-15%	O=C(/C=C/c1c(Cl)cccc1Cl)NCc1ccccc1
?	COc1ccc(-n2c(NC(=O)c3ccco3)c(C#N)c3nc4ccccc4nc32)cc1
-15%	CCOC(=O)N1CCN(c2ccccc2O)CC1
-22%	COc1ccc(-c2nc3n(c2Br)CCC3)cc1
?	O=C(CN1CCc2[nH]c3ccccc3c2C1)N1CCCCC1
2%	O=C(Nc1ccccc1C(=O)N1CCOCC1)c1ccc(F)cc1
-3%	CCn1ncc(CNC(=O)CCSc2nc(-c3ccco3)cc(C(F)(F)F)n2)c1C
-18%	CCOc1cc(-c2nc(-c3ccncc3)no2)cc(OCC)c1OCC
-15%	COc1ccc(OC)c(C(c2nnnn2C2CCCC2)N2CCN(c3ccc(F)cc3)CC2)c1 (configuration not stated)
-29%	O=C(c1ccc2c(c1)OCO2)N1CCN(c2ccc(C(F)(F)F)cn2)CC1
-9%	COc1ccc(-c2cc3nnc(-c4ccccc4)nc3s2)cc1
-6%	Cc1ccc(/C(O)=C2/C(=O)C(=O)N(CCN3CCOCC3)C2c2ccccn2)cc1 (configuration not stated)
-10%	Nn1c(CN2CCCCC2)nc2ccccc2c1=O
-8%	Cc1nnc(SCC(=O)NNC(=O)C(C)C)[nH]c1=O
?	O=C(Nc1ccc(N2CCN(C(=O)c3ccccc3)CC2)c(Cl)c1)c1ccc(Br)o1
-19%	CC1CC2(CCCC2)N(C(=O)c2ccccc2)Cc2ccccc21 (configuration not stated)
-7%	CC(c1ccco1)N(C(=O)C12CC3(C)CC(C)(CC(C)(C3)C1)C2)c1ccccn1 (configuration not stated)
-25%	O=C(NCCO)c1cc2ccccc2cc1O
-7%	Cc1cc2cc3c(cc2nc1SCC(=O)Nc1ccccc1)CCC3
-4%	O=C(C1CCCC1)N(c1ccccc1)C1C=CS(=O)(=O)C1 (configuration not stated)
0.89µM*	Cc1ccc(S(=O)(=O)/N=C2/C=C(Sc3ncn[nH]3)C(=O)c3ccccc32)cc1
-17%	Cc1sc2ncnc(Sc3ccccc3C(=O)Nc3ccc(C#N)cc3)c2c1C
-6%	[N-]=[N+]=CC(=O)CC(c1ccccc1)N1C(=O)c2ccccc2C1=O (configuration not stated)

Ordered by value in HPGD block (rising): 4 of the compounds above
HPGD block	Molecule
-22%	COc1ccc(-c2nc3n(c2Br)CCC3)cc1
-14%	CCOC(=O)COc1c(Cl)cc(C2NC(=S)NC(c3ccccc3)=C2C(C)=O)cc1OCC (configuration not stated)
-7%	COc1cc(O)c(C(=O)/C=C/c2ccccc2)c(OC)c1
-2%	COc1cc(CC(=O)OCC(=O)Nc2cc(S(=O)(=O)N3CCCC3)ccc2Cl)cc(OC)c1OC

Following part:
HPGD block	Molecule
25µM*	COc1ccccc1NS(=O)(=O)c1cc(NC(=O)Nc2ccccc2)ccc1N1CCCCC1
-6%	CCOC(=O)c1cn(-c2ccccc2)nc1-c1ccncc1
1%	CN(CC(=O)Nn1cnnc1)S(=O)(=O)c1ccccc1
?	COc1cc(C(=O)OCC(=O)NCc2ccc(F)cc2)cc(NC(=O)c2cccs2)c1OC
-5%	O=C(Cn1cccc1C(=O)c1ccccc1)NCCCN1CCOCC1
-6%	CCc1cccc(C)c1NC(=O)CSc1nnc(CCCOc2ccc(Cl)cc2Cl)n1C
25µM*	O=C(NNc1nc2cc3c(cc2s1)OCO3)c1ccc(F)cc1
-11%	Cc1cccc(NC(=O)Cc2noc3ccccc23)c1C
-2%	NCOC(=O)Cc1ccc(Br)cc1
-25%	O=C(NC(=S)Nc1ccc(N2CCOCC2)cc1)c1cccc([N+](=O)[O-])c1
-1%&-21%&-6%&-5%	CN1CCC(=C2c3ccccc3C=Cc3ccccc32)CC1
-12%	COC(=O)[C@@]1(Cc2ccc(OC)cc2)[C@H]2c3cc(C(=O)N(C)C)n(Cc4cc(F)c(F)c(F)c4)c3C[C@H]2CN1C(=O)c1ccccc1
-7%	COCCCNC(=S)N1CCN(C(=O)C(=O)Nc2ccc(C(=O)OC)cc2)CC1
-17%	CCOC(=O)N1CCC(Nc2ccc3nnc(-c4ccccc4)n3n2)CC1
?	COC(=O)NNC(=S)Nc1cc(OC)ccc1OC
?	CCOC(=O)Nc1ccc2c(CN3C(=O)NC4(CCCC4)C3=O)cc(=O)oc2c1
?	O=Cc1cn(-c2ccccc2)nc1-c1cc2cc(O)ccc2oc1=O
?	Cc1csc2ncc(C(=O)Nc3ccon3)c(=O)n12
-4%	C=C(C)CN1C(=O)c2ccccc2C1=O
-10%	O=C(CSc1nnc(-c2ccco2)n1CC1CCCO1)c1ccc(F)cc1 (configuration not stated)
-10%	COc1ccc(C(C(=O)NC2CCCC2)N(C(=O)c2ccco2)c2ccc3c(c2)OCO3)cc1OC (configuration not stated)
-4%	O=C(/C=C/c1cc2c(cc1Br)OCO2)NCc1ccc(Cl)cc1
-9%	COc1ccc(NC(=O)CSc2nnc(-c3cccnc3)n2Cc2ccco2)c(OC)c1
-10%	COC1=CC(=O)OC12CCCCC2
-9%	CCn1c(SCC(=O)Nc2nc(C)c(C)s2)nnc1-c1cccs1
-5%	Cc1ccc(Cl)cc1NC(=O)COC(=O)C1CCCC1
-12%	COc1ccc(NC2=NC(=S)N(c3ccccc3C)C23CCCCC3)cc1
-5%	Cc1ccc(S(=O)(=O)NNC(=O)c2cnn(-c3ccccc3)c2-n2cccc2)cc1
-16%	O=C(N/N=C/c1cccs1)c1n[nH]c2c1CCC2
-18%	CCc1ccccc1NC(=O)CSc1ncn[nH]1

Copied from the list:
Under HPGD block, CCn1c(SCC(=O)Nc2nc(C)c(C)s2)nnc1-c1cccs1 reads -9%
Under HPGD block, CCc1cccc(C)c1NC(=O)CSc1nnc(CCCOc2ccc(Cl)cc2Cl)n1C reads -6%

Other records follow:
HPGD block	Molecule
0%	O=C(CSc1ncn[nH]1)Nc1ccccc1Sc1ccccc1
?	Nc1nc2nc(-c3ccc(OCc4ccccc4)cc3)cc(C(F)(F)F)n2n1
28µM*	CCC1Oc2ccc(C)cc2N(CC(=O)N(Cc2cccnc2)Cc2ccc(C)o2)C1=O (configuration not stated)
-4%	CC1(C)CC(=O)C=C(NCCN2CCNCC2)C1
-16%	COc1cc(C(=S)N2CCCCC2)ccc1O
-3%	COc1ccc(C(=O)NCC(=O)O)cc1
?	CNc1oc(-c2ccc(Cl)cc2)nc1P(=O)(c1ccccc1)c1ccccc1
-3%	COc1ccc(C2N=C(c3ccccc3)C(C)(C)N2O)cc1OC (configuration not stated)
-10%	CNC(=O)Nc1nnc(C(C)(C)C)s1
-14%	C=CCCCCCCCCC(=O)Nc1c[nH]c(=O)[nH]c1=O
-23%	O=c1cc(O)c2sc(Nc3ccc(F)cc3)nc2[nH]1
?	COc1ccccc1/C=C/C(=O)NCC(=O)N/N=C/c1cccnc1
-23%	CCc1ccc(C2(O)CC(C(F)(F)F)=NN2C(=O)Cc2ccc([N+](=O)[O-])cc2)cc1 (configuration not stated)
-21%	Cc1nn(-c2ccccc2)c2c1C(=O)N(c1ccccc1)C(=O)C(C)(C)C2
-7%	CC(C)C(=O)Nc1ccc(-c2csc(-c3ccccc3)n2)cc1
-15%	CC(C)CN1CC[C@@]2(CCCN(C(=O)c3cnccn3)C2)C1
-9%	COc1cccc(NC(=O)N2CCCC2C(=O)NC2CC2)c1 (configuration not stated)
-6%	CCn1c(Cc2ccccc2)nnc1SCc1ccc([N+](=O)[O-])cc1
-4%	O=C(/C=C/c1cccc(F)c1)Nc1cc(S(=O)(=O)N2CCOCC2)ccc1N1CCCC1
3%	CCCOc1ccc(S(=O)(=O)NCCN2CCOCC2)c2ccccc12
-26%	CCCCNC(=O)CC1Nc2ccccc2NC1=O (configuration not stated)
28µM*	Cc1ccc(C)c(/C(O)=C2\C(=O)C(=O)N(CCCn3ccnc3)C2c2ccncc2)c1 (configuration not stated)
-10%	CN(C)CCNC=C(C(=O)Nc1ccc(Cl)cc1Cl)C(=O)Nc1ccc(Cl)cc1Cl
-17%	COC(=O)N/N=C/c1c[nH]c2ccccc12
-3%	Cc1cc(C)c(NC(=O)Cn2cc3c(n2)CCCC3)c(C)c1
-16%	CC(=O)OC[C@H]1O[C@@H](O/N=C/[C@@H](C)[C@H](OCc2ccccc2)C(C)C)[C@H](OC(C)=O)[C@@H](OC(C)=O)[C@@H]1OC(C)=O
-13%	CCC1Oc2ccc(C)cc2N(CC(=O)NCc2ccccc2OC)C1=O (configuration not stated)
-2%	Cc1cc(C)cc(N(CC(=O)Nc2c(C)n(C)n(-c3ccccc3)c2=O)S(C)(=O)=O)c1
?	O=C1c2cccc(OCC(=O)N3N=C(c4cccs4)CC3c3ccc(F)cc3)c2CCN1Cc1cccnc1 (configuration not stated)
20µM*	Cc1cc(C(F)(F)F)nc(SCC(=O)NC2CC3CCC2C3)n1 (configuration not stated)
-8%	Cc1cc(OCC(=O)Nc2cccc(S(=O)(=O)NC3=NCCCCC3)c2)ccc1Cl
-1%	CC(=O)OCc1c(C(F)(F)F)nn(C)c1Oc1ccccc1
-14%	CCC(=O)c1ccc(N2CCN(C(=O)c3cc([N+](=O)[O-])ccc3N3CCN(C)CC3)CC2)c(F)c1
-11%	OC(C#CCN1CCOCC1)(c1ccccc1)C1CCCCC1 (configuration not stated)
-12%	COc1cccc(-c2nc(C(N)=O)c3[nH]c(=O)n(-c4cccc(Cl)c4)c3n2)c1OC
-7%	CN1C(=O)CC(N2CCC(C(N)=O)(N3CCCCC3)CC2)C1=O (configuration not stated)
?	COc1ccc(NC(=O)c2cc(C(C)C)on2)c(OC)c1
-4%	Cc1ccccc1-c1nnc(SCC(=O)Nc2cccc(C)c2C)o1
-19%	Cc1ccc(Cn2ccc(NC(=O)c3cc(C(C)C)on3)n2)cc1

Bioassay records deposited in PubChem BioAssay by National Center for Advancing Translational Sciences (NCATS).

The list is partial, so the mix of outcomes need not match the whole.
